# Screening results: PubChem BioAssay, National Center for Advancing Translational Sciences (NCATS)
# nsP2pro inh = blocks chikungunya virus nsP2 protease peptide cleavage; Q8JUX6; FRET peptide cleavage, nsP2pro, fluorescence 1 h; Potency, µM (top dose mostly 24.9 µM), inactives show at the top dose activity change, negative = inhibition, most hits filed as inhibitors; hit rate 1.1% among 31,000; active means well fitted inhibition curve with a large enough effect; inconclusive means small, poorly fitted or top-dose-only effect; inactive means no such curve, though single readings can be large or run the other way; note: nearly all actives have a fitted effect of over 60% in size; a reference inhibitor and vehicle were the controls
# An asterisk follows results filed as active; i = inactive; ? = inconclusive; & = joins results of further samples; [ ] = another dose, or the depositor's remark. % is set by controls: 0 for no effect and ±100 for the full control effect; potency is the fitted concentration of half-maximal effect. An excerpt; the hit share may differ from the screen's.
no.	compound	nsP2pro inh
1	Cc1ccc(NC(=O)[C@H]2CCCN(C(=O)c3c(C)cccc3F)[C@H]2c2ccc(NC3CCCC3)cc2)cc1C(F)(F)F	3%
2	COCC1CN(C(C)=O)CC12CCN(Cc1cccc(Cl)c1F)CC2 (stereo unspecified)	1%
3	Nc1nc(CCCNC(=O)C2CC(=O)N(Cc3ccccn3)C2)cs1 (stereo unspecified)	-9%
4	Cc1csc(CNc2ncnc3ccc(-c4ccoc4)cc23)c1	0%
5	O=C(COc1ccccc1[N+](=O)[O-])N1CCN(CCc2ccncc2)CC1	?
6	Cc1ccc(NC(=O)N2CCC(c3noc(COCC4CC4)n3)CC2)cc1F	5%
7	COc1cccc2c1cc1c(=O)n(CC(=O)NCCCN3CCN(C)CC3)nc(C)n12	-4%
8	COCCCNc1nc2c(-c3cccc(Br)c3)nnn2c2ccccc12	-13%
9	COc1cc(Cl)c(C)cc1NC(=O)CN1c2ccccc2S(=O)(=O)c2ccccc21	-18%
10	COc1cccc(N2C(=O)c3ccccc3C2=O)n1	i
11	O=C(NCc1nnc2cc(-c3nc(C4CC4)no3)ccn12)c1nccc2ccccc12	i
12	COCc1nc(NCCc2nc(-c3ccccn3)no2)c2cnn(C)c2n1	3%

# Overlap with the part before: 5 entries, followed by the next part.
no.	compound	nsP2pro inh
8	COCCCNc1nc2c(-c3cccc(Br)c3)nnn2c2ccccc12	-13%
9	COc1cc(Cl)c(C)cc1NC(=O)CN1c2ccccc2S(=O)(=O)c2ccccc21	-18%
10	COc1cccc(N2C(=O)c3ccccc3C2=O)n1	i
11	O=C(NCc1nnc2cc(-c3nc(C4CC4)no3)ccn12)c1nccc2ccccc12	i
12	COCc1nc(NCCc2nc(-c3ccccn3)no2)c2cnn(C)c2n1	3%
13	CC1=C(C(=O)Nc2cccnc2)C(c2ccc(Cl)cc2)n2nc(SCc3ccccc3)nc2N1 (stereo unspecified)	?
14	O=C1CCN(C(=O)CCCc2ccccc2)CCCC(CO)CCN1 (stereo unspecified)	3%
15	Cc1cccc(-c2ccc3ncnc(NCc4cccc(F)c4)c3c2)c1	i
16	Cn1ccc2cc(-c3ccc4ncnc(NCc5cccc(F)c5)c4c3)ccc21	2%
17	NC(=O)C1CCN(c2ncc(Br)s2)CC1	-13%
18	Cc1ccc(S(=O)(=O)c2[nH]c(-c3ccccc3)nc2SC(C)C(=O)O)cc1 (stereo unspecified)	-11%
19	CCN(c1ccccc1)S(=O)(=O)c1nnc(NC(=O)C(C)(C)C)s1	-11%
20	Cc1ncc(CSSCc2cnc(C)c(O)c2CO)c(CO)c1O	-6%
21	COc1cccc(C2c3c(ncn(-c4ccncc4)c3=N)Oc3ccc4ccccc4c32)c1 (stereo unspecified)	-23%
22	CC(=O)N1CCN(c2cccc(Nc3nn4c(=O)c5ccccc5nc4s3)c2)CC1	-12%
23	Cc1ccc(C)c(CN2C(=O)c3ccccc3S(=O)(=O)c3ccc(C(=O)N4CCCCCC4)cc32)c1	-15%
24	COc1cc2c(cc1OC)[C@@]13CCN4CC5=CCO[C@H]6CC(=O)N2[C@H]1[C@H]6[C@H]5C[C@H]43	?

# Remaining list, next part
no.	compound	nsP2pro inh
25	Cc1ccc(C(=O)N2CCC(N3C(=O)c4c(c(C)nn4-c4ccccc4)C3C)CC2)cc1 (stereo unspecified)	i
26	C=C[C@]1(C)C[C@@H](OC(=O)CSCCN(CC)CC)[C@]2(C)[C@H](C)CC[C@]3(CCC(=O)[C@H]32)[C@@H](C)[C@@H]1O	17%
27	O=C1c2ccccc2C(=O)N1Cc1ccncc1	0%
28	CN1C2CCC1CC(OC(=O)N1Cc3ccccc3NC1=O)C2 (stereo unspecified)	-7%
29	CN(C)CCNc1ncnc2ccc(-c3ccc4c(c3)OCO4)cc12	-20%
30	COC(=O)[C@@H]1Cc2ncn(Cc3ccc(OC)cc3)c2CN1S(=O)(=O)c1ccccc1	-16%
31	CC(=O)O[C@H]1CC2C(COC(=O)CC(C)C)=CO[C@@H](OC(=O)CC(C)C)C2[C@]12CO2 (stereo partly specified)	-20%[10 µM]
32	OCCc1ccccc1	-15%&-5%
33	CCc1ccc2nc(N(CCN(CC)CC)C(=O)c3cccs3)sc2c1	12%
34	COc1ccc(CNc2ccc(S(=O)(=O)Nc3nccs3)cc2)c(O)c1	-6%
35	Cc1ccc(N2CC(C)Cn3c2nc2c3c(=O)n(Cc3cccc(Cl)c3)c(=O)n2C)cc1 (stereo unspecified)	-19%
36	CC(=O)O[C@@H]1c2c(C)coc2C(=O)[C@@]23O[C@@H]2CC[C@H](C)[C@@]13C	1%

# (continued)
no.	compound	nsP2pro inh
37	CS(=O)(=O)CCNCc1ccc(-c2ccc3ncnc(Nc4ccc(OCc5cccc(F)c5)c(Cl)c4)c3c2)o1	75%&57%[activator]
38	C[C@H]1CC[C@@]2(O)C(C)(C)[C@@H]3CC[C@@]2(C)[C@H]1C3	-11%
39	COc1ccc(-c2nn3c(=O)cc(CN4CCN(C(=O)c5ccc(OC)c(OC)c5)CC4)nc3s2)cc1	-8%
40	O=C(OCC#CCSc1nnc(-c2cccc3ccccc23)o1)c1ccc(Cl)cc1	i
41	COc1cnc(-c2ccccc2C(C)C)nc1NCc1ccc(-c2cccnc2)cc1	i
42	O=C(CCCn1c(=O)c2sccc2n(Cc2cccc(Cl)c2)c1=O)NCc1ccc2c(c1)OCO2	-14%
43	Cn1c(Cn2ccnc2)nnc1C1CCCN(CCOCc2ccccc2)C1 (stereo unspecified)	i
44	COc1ccc(NC(=O)c2ccc3c(c2)OCC(=O)N(C)C3)c(F)c1	i
45	Cc1c(S(=O)(=O)c2cccc(Cl)c2)nnn1-c1cccc(C(F)(F)F)c1	-12%
46	O=C(O)c1ccc(O)c2ncc(N3CCC(N4CCOCC4)C3)cc12 (stereo unspecified)	i
47	CC(C)C(=O)Nc1nnc(SCc2cc(=O)n3ccccc3n2)s1	-20%
48	CCN(C(=O)c1cc2c(=O)oc3ccc(C)cc3c2s1)c1ccccc1F	-12%

# Reprinted from the part before: seven entries, then new ones.
no.	compound	nsP2pro inh
42	O=C(CCCn1c(=O)c2sccc2n(Cc2cccc(Cl)c2)c1=O)NCc1ccc2c(c1)OCO2	-14%
43	Cn1c(Cn2ccnc2)nnc1C1CCCN(CCOCc2ccccc2)C1 (stereo unspecified)	i
44	COc1ccc(NC(=O)c2ccc3c(c2)OCC(=O)N(C)C3)c(F)c1	i
45	Cc1c(S(=O)(=O)c2cccc(Cl)c2)nnn1-c1cccc(C(F)(F)F)c1	-12%
46	O=C(O)c1ccc(O)c2ncc(N3CCC(N4CCOCC4)C3)cc12 (stereo unspecified)	i
47	CC(C)C(=O)Nc1nnc(SCc2cc(=O)n3ccccc3n2)s1	-20%
48	CCN(C(=O)c1cc2c(=O)oc3ccc(C)cc3c2s1)c1ccccc1F	-12%
49	COC(=O)C1=CO[C@@H](O[C@@H]2O[C@H](CO)[C@@H](O)[C@H](O)[C@H]2O)C2C1C(=O)C[C@H]2C (stereo partly specified)	?
50	NS(=O)(=O)NCCNc1nonc1C(=Nc1ccc(F)c(Br)c1)NO	4%&15%&1%
51	CC(C)c1ccc(-n2cc(CN3CCCC4(C3)CN(C)C(=O)O4)cn2)cc1 (stereo unspecified)	16%
52	CSCc1ccc(C(=O)N2CCN(c3ccc(C)cc3)C(=O)C2)o1	-3%
53	COc1ccc(O)cc1	-4%
54	CC(C)N1C[C@@H]2OCC(=O)N(Cc3ccccn3)[C@@H]2C1	-16%[39.2 µM]
55	Cc1ccc(-c2nc(S(=O)(=O)c3ccccc3)c(SCC(=O)NC3CCCCC3)o2)cc1	-12%
56	COc1ccc(S(=O)(=O)N2CCC(C(=O)Nc3cc(C(F)(F)F)ccc3Cl)CC2)cc1	6%
57	COc1cc(O)c(C(CC(=O)N2CCCC(c3nc4ccccc4o3)C2)c2ccc3c(c2)OCO3)c(OC)c1 (stereo unspecified)	-21%[39.2 µM]
58	CCc1ccccc1NC(=O)CSC1=Nc2ccccc2C2=NC(Cc3ccccc3)C(=O)N12 (stereo unspecified)	-14%
59	CCOCCCn1c(SCC(=O)NCCCOC)nc2c(sc3ccccc32)c1=O	-20%
60	Cc1ccc(C(C)C)c(O)c1	-5%

# More results follow.
no.	compound	nsP2pro inh
61	Cc1ccc(F)c(OC2(C(=O)O)CCN(S(=O)(=O)c3cnn(C)c3)CC2)c1	-2%
62	Cc1cccc(S(=O)(=O)N2CCCC(Cn3c(C4CC4)nc4cccnc43)C2)c1 (stereo unspecified)	1%
63	O=C(Nc1cc(-c2nc3cc(Cl)ccc3o2)ccc1Cl)c1cccc2ccccc12	-18%
64	C=C[C@H]1[C@H](O[C@@H]2O[C@H](CO)[C@@H](O)[C@H](O)[C@H]2O)OC=C(C(=O)OC)[C@H]1CCO	14%
65	CC(C)C1CN2CCCC2CN1 (stereo unspecified)	-26%[39.2 µM]
66	CC[C@@]1(O)CCN(C(=O)CCc2nc(-c3ccncc3)no2)C[C@H]1O	i
67	CS(=O)(=O)c1cnc(NCCn2ccnc2)nc1C1CCCNC1 (stereo unspecified)	i
68	Cc1cccc(N(C)C(=S)Oc2ccc3c(c2)C2CCC3C2)c1 (stereo unspecified)	-10%
69	Cc1ccc(-c2nc3ccc(Br)cn3c2Nc2ccc3c(c2)OCO3)o1	2%
70	O=C(COC(=O)CNC(=O)c1ccccc1Cl)Nc1ccccc1Cl	-24%
71	Oc1cc(Nc2ccc(N3CCCCC3)cc2)cc2cccnc12	i
72	COc1cc(O)cc(/C=C/c2ccc(O[C@@H]3O[C@H](CO)[C@@H](O)[C@H](O)[C@H]3O)cc2)c1	17%[10 µM]

# Next part
no.	compound	nsP2pro inh
73	O=C(NCc1cccc(Cl)c1)c1cnc2c(c1)N(C(=O)Cc1ccc(O)cc1)CCC2	-10%[39.2 µM]
74	CC(C)Oc1ccc(C(=O)N(Cc2ccc(N(C)C)cc2)C2CCS(=O)(=O)C2)cc1 (stereo unspecified)	-18%
75	O=C(Nc1ccc(-c2ccccc2)nc1)c1cccs1	?
76	CC(=O)c1ccc(N2CCN(S(=O)(=O)c3ccc4c(c3)oc(=O)n4C)CC2)cc1	-5%
77	CCOc1ccc(C(=O)Nc2ccc3nc4c(c(Nc5ccccc5OC)c3c2)CCCC4)cc1	1%
78	COc1ccc(S(=O)(=O)c2c(C(=O)c3ccc(C)c(C)c3)cnc3ccc(F)cc23)cc1	-14%
79	C[C@]12CC[C@H]3[C@@H](CCC4=CC(=O)CC[C@@H]43)[C@@H]1CC[C@@H]2OC(=O)CCc1ccccc1	-5%
80	O=C(CN1CCN(Cc2ccc(F)cc2Cl)S1(=O)=O)Nc1ccc(F)cc1	-23%
81	O=C(OC[C@H]1O[C@@H](Oc2ccccc2CO)[C@H](O)[C@@H](O)[C@@H]1O)c1ccccc1	98%[activator]
82	C=C(CO)C(=O)O[C@H]1CC(=C)[C@@H]2C[C@H](O)C(=C)[C@@H]2[C@H]2OC(=O)C(=C)[C@@H]21	4%
83	CC(=O)O[C@H]1C[C@@]2(C)[C@@H](CC[C@H]3[C@@]4(C)C=CC(=O)[C@@H](C)[C@@H]4[C@H](O)C(=O)[C@@]32C)/C1=C(/CCC=C(C)C)C(=O)O	4%[10 µM]
84	O=C(Nc1ccc(-c2nc3ccccc3[nH]2)cc1)c1ccc2sccc2c1	-11%

# Further entries
no.	compound	nsP2pro inh
85	CCN(CC)CCCNC(=O)CCc1c(C)nc2c(c1C)c(=O)n(C)c(=O)n2C	-15%
86	COC(=O)CCNC(=O)N1CCN(c2nnc(C)c3c(C)n(-c4ccccc4)nc23)CC1	-10%
87	CCOc1ccc(NC(=O)c2cc3cc4cc(OC)ccc4nc3s2)cc1	-16%
88	CSCC1OC(n2cnc3c(N)ncnc32)C(O)C1O (stereo unspecified)	-9%
89	CC(=O)N1c2ccccc2CC1C(=O)NCc1cccc(Cl)c1 (stereo unspecified)	-5%
90	COc1cc(Cn2c(=O)sc3ccccc32)ccc1OC(C)C	-21%
91	CO[C@@H]1[C@H](N(C)C(=O)c2ccccc2)C[C@H]2O[C@]1(C)n1c3ccccc3c3c4c(c5c6ccccc6n2c5c31)C(=O)NC4	-34%
92	CONC(=O)C[C@@H](C#N)NC(=O)[C@@H]1CCCN1C(=O)[C@@H](NC(=O)c1ccc(N)c(Cl)c1)C(C)(C)C	2%
93	C[N+](C)(C)CCCCCCCCCC[N+](C)(C)C	1%
94	CCOC(=O)c1c(C)[nH]c(C)c1S(=O)(=O)N1CCCC(C(=O)NCc2ccc(C)cc2)C1 (stereo unspecified)	-18%
95	CCOc1ccc(CNC(=O)COc2cc(=O)n(C)c3ccccc23)cc1	?
96	Cc1ccc(NS(=O)(=O)c2cc3c(cc2NC(C)CO)NC(=O)CC3)cc1C (stereo unspecified)	-8%

# The list goes on:
no.	compound	nsP2pro inh
97	CNC(=O)c1cc(C2CC2)nc2onc(C3CCN(C(=O)C4CCCCC4)CC3)c12	i
98	CC1(C)S[C@@H]2[C@H](NC(=O)[C@H](NC(=O)N3CCNC3=O)c3ccccc3)C(=O)N2C1C(=O)O (stereo partly specified)	-4%
99	COc1ccc(S(=O)(=O)N2C[C@@H]3C[C@H](C2)c2c(NS(=O)(=O)c4ccccc4)ccc(=O)n2C3)cc1	?
100	CCCCCN=C(N)N/N=C/c1c[nH]c2ccc(OC)cc12	?
101	COc1ccccc1N1CCN([C@@H]2[C@H](O)[C@H](CO)O[C@@H]2CNC2CCCCC2)CC1	-4%
102	COc1ccc(C(=O)N[C@@H]2CN(c3ncccn3)C[C@H]2CN(C)C)cn1	-5%
103	CCOc1c(Cl)cc(CNc2ccc3[nH]c(=O)[nH]c3c2)cc1OC	-14%
104	C(=C/c1cccs1)/c1ccncc1	-6%
105	NC(=O)C(c1ccccc1)(c1ccccc1)[C@@H]1CCN(CCc2ccc3c(c2)CCO3)C1	-5%
106	Cc1cc(Cl)ccc1NC1CN(C(=O)OC(C)(C)C)C1	-19%[39.2 µM]
107	CC(C)(C)OC(=O)N1CCC(c2c(C(=O)Nc3ccc4c(c3)OCO4)cnn2-c2ccc(F)cc2F)CC1	-12%
